From PubChem BioAssay
HPGD block – qHTS Assay for Inhibitors of HPGD (15-Hydroxyprostaglandin Dehydrogenase); 15-hydroxyprostaglandin dehydrogenase [NAD(+)] (Homo sapiens), P15428; purified HPGD, NADH fluorescence kinetic, PGE2 substrate; Potency, µM, without a hit: top-dose activity change, negative = inhibition, actives largely listed as inhibitors; actives 4.3% (n = 150,000); AID 894, 2007; active = well fitted inhibition curve with a large enough effect (not every such curve was filed as active); inconclusive = small, poorly fitted or top-dose-only effect, or another doubt; inactive = no such curve, though single readings can be large or run the other way;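 further: top concentration of the series not given in the record; plate controls included wells without enzyme; inactives centre near -10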
Target sequence (P15428 whole entry, looked up): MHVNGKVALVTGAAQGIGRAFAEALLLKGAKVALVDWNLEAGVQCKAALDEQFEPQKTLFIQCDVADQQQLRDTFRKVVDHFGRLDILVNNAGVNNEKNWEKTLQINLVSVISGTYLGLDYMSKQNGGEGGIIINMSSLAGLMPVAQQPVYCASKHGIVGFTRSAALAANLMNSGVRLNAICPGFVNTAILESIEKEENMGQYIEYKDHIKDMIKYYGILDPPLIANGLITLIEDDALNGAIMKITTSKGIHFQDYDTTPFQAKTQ
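NADH formation kinetics: reaction with 30 uM PGE2 and 1 mM NAD+ (final), 20 nM enzyme, Tris-HCl pH 8 with Tween 20, after 15 min compound preincubation at room temperature. Fluorescence change, last versus first of five reads.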
* = called active by the depositor; ? = inconclusive. On the % scale 0 is the no-effect control and ±100 the full control effect; potency means the concentration at half of the fitted maximal effect. These rows are one share of the data (hit frequency here may not be typical).

Preview:
SMILES	HPGD block
O=C(N/N=C/c1ccc(Cl)cc1Cl)Nc1ccccc1	2%
N[C@@H](Cc1[nH]nc2ccccc12)C(=O)O	-4%
CCOC(=O)c1ccc(NC(=O)CC2SCCNC2=O)cc1 (stereo unspecified)	-4%
Cc1ccccc1NC(=O)CSCC(=O)Nc1ccccc1C	18µM*
CCOC(=O)N1CCN(C(=O)c2cc3c(-c4ccc(Cl)cc4)nn(C)c3s2)CC1	-24%
COc1ccc(Br)c(C(=O)NCCC(C)C)c1	13µM*

All compounds of this part, from the first entry:
SMILES	HPGD block
O=C(N/N=C/c1ccc(Cl)cc1Cl)Nc1ccccc1	2%
N[C@@H](Cc1[nH]nc2ccccc12)C(=O)O	-4%
CCOC(=O)c1ccc(NC(=O)CC2SCCNC2=O)cc1 (stereo unspecified)	-4%
Cc1ccccc1NC(=O)CSCC(=O)Nc1ccccc1C	18µM*
CCOC(=O)N1CCN(C(=O)c2cc3c(-c4ccc(Cl)cc4)nn(C)c3s2)CC1	-24%
COc1ccc(Br)c(C(=O)NCCC(C)C)c1	13µM*
CCOC(=O)c1c(NC(C)=O)sc2c(O)c(Br)ccc12	-21%
CCCCn1c(=O)c(CCC(=O)OCC(=O)Nc2ccc(F)c(Cl)c2)nc2ccccc21	-11%
Clc1ccc(C2[C@H]3CN(Cc4cccnc4)[C@H](c4ccccc4)C34CC2(c2ccccc2)C4)cn1 (stereo partly specified)	-12%
Cc1ccc(Cl)cc1NC(=O)c1cnn2c1NC(c1ccco1)CC2C(F)(F)F (stereo unspecified)	-21%
CCc1ccccc1NC1c2ccccc2C(=O)N1c1cc(C)ccn1 (stereo unspecified)	-9%
Cc1ccsc1/C=N/Nc1nc2ccccc2[nH]1	-11%
CCn1c(=N)c(C(=O)NCCCOC)cc2c(=O)n3cccc(C)c3nc21	?
Cc1ccc2c(CN3CCCc4ccccc43)cc(=O)oc2c1C	-14%
COc1ccc(C(=O)N2CCC3(CC2)CN(c2ccc(-c4ccccc4)cc2)C3)cc1	-4%
Cc1cccc(N2C(=O)CCC2=O)n1	0%
CC(C)=CCSc1nnc(CCNC(=O)OC(C)(C)C)o1	-11%
CCCc1cc(=O)[nH]c(SCC(=O)Nc2nonc2N)n1	-21%
O=C(O)CCS(=O)(=O)Cc1ccccc1F	-3%
COc1cc(OC)cc(C(=O)N(CN2CCCC2=O)c2ccccc2OC)c1	-16%
CCN(CC)c1ncnc2c1sc1nc(N3CCOCC3)c3c(c12)CCC3	?
COCCSc1ccccc1C(=O)NCc1ccc(S(N)(=O)=O)cc1	-16%
CN(C)c1ccc(NC(=O)/C=C/c2c(Cl)cccc2Cl)cc1	-8%
CN1C(=O)CSc2ccc(NC(=O)N3CCc4ccccc43)cc21	-2%
COc1cccc2sc(Nc3nnc(-c4ccccc4Cl)o3)nc12	-20%
Cc1c(NC(=O)c2ccccc2)cccc1[N+](=O)[O-]	-20%
O=C(NCCCN1CCN(c2ccc(F)cc2)CC1)c1cccc(N2CCCC2=O)c1	6%
COc1cccc(C=Nc2cc(C)on2)c1O	-11%
Cc1nc(NC(=O)C2CC2)sc1C(=O)N(C)C	-8%
CC1=C/C(=N\OS(=O)(=O)c2ccccc2)C(C(C)C)=CC1=O	-14%
CC(NC(=O)CN1C(=O)NC(Cc2ccccc2)(Cc2ccccc2)C1=O)C12CC3CC(CC(C3)C1)C2 (stereo unspecified)	-8%
O=C(/C=C/c1ccccc1)NC1CC2CCC1C2 (stereo unspecified)	?
FC(F)(F)c1cccc(Sc2nc(-c3ccccc3)nnc2C(F)(F)F)c1	-17%
Cc1cc(C)n(CC(=O)N/N=C/c2cc([N+](=O)[O-])ccc2O)n1	?
CCNC(=S)NNC(=O)C1CCCCC1	-2%
Cc1cc(C)c(C)c(S(=O)(=O)NCC(=O)O)c1C	4%
O=C1OC(c2ccccc2)=C/C1=C/c1cccs1	-5%
O=C1CCCC2=C1C(c1ccncc1)c1c(nc(SCc3ccccc3)[nH]c1=O)N2 (stereo unspecified)	?
CCNC(=O)CC1C(=O)N(c2ccccc2)C(=O)N1CCc1ccc(OC)cc1 (stereo unspecified)	-9%
COc1ccccc1OCCCCNCCO	1%
O=C1Nc2ccc(Br)cc2C1(O)Cc1ccccn1 (stereo unspecified)	-3%
O=C(NCc1ccc2c(c1)OCO2)c1ccc(N2CCCCCC2)c([N+](=O)[O-])c1	14µM*
O=C(Nc1ccc2c(c1)OCCO2)c1ccco1	-29%
O=C(c1c(F)cccc1F)N1CCN(c2ncccn2)CC1	-10%
Cc1ccc(C(=O)Nc2ccccc2C(=O)NC(C(=O)O)C(C)C)cc1 (stereo unspecified)	0%
C=CCC1(O)CCOc2ccccc21 (stereo unspecified)	-6%
CCOC(=O)CN1C(=O)S/C(=C/C=C/c2ccc(N(C)C)cc2)C1=O	-5%
Cc1cc(NC(=O)CN2C(=O)NC3(CCCCC3C)C2=O)no1 (stereo unspecified)	-5%
COCC(C)n1c(C)cc(C(=O)COC(=O)c2c(NC(C)=O)sc(C)c2C)c1C (stereo unspecified)	-16%
O=C(Nc1ccccc1)Nc1nnc(-c2ccccc2)o1	-17%
New compounds follow:
SMILES	HPGD block
CCOC(=O)c1[nH]c(C)c(C(=O)NCCC2=CCCCC2)c1C	-4%
O=C(Nc1ccc([N+](=O)[O-])cc1Br)c1cccnc1	-19%
C/C(N)=C(/C#N)C(=O)COC(=O)CCS(=O)(=O)c1ccccc1	-7%
O=C1C2C3C=CC(C4CC34)C2C(=O)N1/N=C/c1ccc([N+](=O)[O-])s1 (stereo unspecified)	?
O=C(CSc1ncccn1)Nn1cnnc1	-15%
C=CCn1c(SCc2cccnc2)nnc1-c1ccncc1	-12%
O=S(=O)(c1ccccc1)N1CCC[C@@]2(CCN(C(c3ccccc3)c3ccccc3)C2)C1	-12%
O=C(COC(=O)CNC(=O)c1cccc(F)c1)NCCC1=CCCCC1	-9%
Cn1c(C(O)c2ccc(Cl)cc2)nc(Cl)c1Cl (stereo unspecified)	-7%
CC(=O)c1c(C)[nH]c(C(=O)N2CCN(c3cc(Cl)ccc3C)CC2)c1C	-8%
CN(C)c1ccc(C(=S)Nc2ccccc2)cc1	-24%
O=C(NCCNC(=O)c1ccco1)c1cccc(F)c1	-3%
Nc1oc2ccc(F)cc2c(=O)c1C=O	-28%
C=CCOc1ccc(C=Nc2cccc(Cl)c2)c(O)c1	?
CCN(CC)S(=O)(=O)c1cccc(C(=O)N[C@H](C(=O)NCc2ccccc2F)C(C)C)c1	0%
O=C(O)c1cccc(C[C@H](Br)C(=O)O)c1	-10%
O=C1OC(N2CCN(C(=O)c3ccco3)CC2)c2ccccc21 (stereo unspecified)	-15%
CC1Cn2c(CCc3ccccc3)nnc2S1 (stereo unspecified)	28µM*
COc1ccc(/C=C(\C#N)C(=O)NC2CCS(=O)(=O)C2)cc1OC (stereo unspecified)	-15%
O=C(CSc1ncccc1-c1nc2ccccc2[nH]1)N1CCCCC1	?
CC1=CC2C(=O)c3cccc(O)c3C(=O)C2C(O)=C1 (stereo unspecified)	-13%
Cc1cc(C)n2nc(N)c(N=Nc3ccc(Cl)cc3)c2n1	-1%
CCOc1ccc(N(CC(=O)Nc2cccc(N(C)S(C)(=O)=O)c2)S(=O)(=O)c2ccccc2)cc1	-10%
COc1cccc(C(=O)NNC(=O)Cc2ccc(Cl)cc2)c1	-4%
CCCc1nnc(NC(=O)COC(=O)c2cc(C)nc3ccccc23)s1	-10%
CCOC(=O)C1CCCN(CCC(=O)Nc2ccc3c(c2)CCC3)C1 (stereo unspecified)	-9%
Cc1ccc2c(N)c(C)ccc2c1	?
COC(=O)COc1ccc2c(-c3cccc([N+](=O)[O-])c3)cc(=O)oc2c1	-17%
O=c1nc2ccccc2c2n1CC(CN1CCN(Cc3ccccc3)CC1)N2 (stereo unspecified)	-4%
Cn1c(=O)c2c(nc(-n3ccnc3)n2Cc2ccc([N+](=O)[O-])cc2)n(C)c1=O	-1%
O=C(NCCc1nc2ccccc2[nH]1)c1cc([N+](=O)[O-])cc([N+](=O)[O-])c1	-7%
C1=C(CCNc2nnnn2-c2ccccc2)CCCC1	-4%
O=C(Nc1cccnc1)C1CCCN(S(=O)(=O)c2ccccc2)C1 (stereo unspecified)	-3%
CCOC(=O)c1[nH]c(C)c(C(=O)Nc2cccc(Cl)c2C)c1C	-9%
COc1ccc(NC(=O)C2CCCN2S(=O)(=O)c2ccc3c(c2)CCC(=O)N3)cc1Cl (stereo unspecified)	-9%
CCOC(=O)c1oc2ccc(S(=O)(=O)n3nc(-c4ccc(C)cc4)cc3N)cc2c1C	-12%
CC(C)OC(=O)CSc1nnc(Cc2ccccc2)n1Cc1ccco1	-18%
O=C(Cn1cnc2ccccc2c1=O)Nc1nnc(C2CC2)s1	-4%
Cc1nc(COC(=O)c2ccc(S(=O)(=O)N3CCCC3)cc2)cs1	-15%
Cc1cc(NC(=O)CSc2nnc(NC(=O)C3CC(=O)N(c4ccccc4C)C3)s2)no1 (stereo unspecified)	-21%
Cc1ccc(S(=O)(=O)NC(CC(=O)N2CCOCC2)c2ccco2)cc1 (stereo unspecified)	-10%
CCNC(=O)COc1ccc(-c2ccccc2)cc1	-3%
CCOC(=O)c1ccc(NC(=O)N(CC)CC)cc1	0%
NC(=O)c1ccsc1NC(=O)c1ccc2c(c1)CCCC2	-22%
O=C1NC2(CCc3ccccc3C2)C(=O)N1CCOc1cccc(Cl)c1 (stereo unspecified)	-6%
O=C(O)CSCC(=O)Nc1cccc(C(F)(F)F)c1	-9%
O=C1CC(SCc2nc3ccccc3[nH]2)C(=O)N1c1ccc(F)c(Cl)c1 (stereo unspecified)	22µM*
Cc1ccc(-n2c(SCC3CNC(=O)O3)nnc2-c2ccccc2)cc1C (stereo unspecified)	-1%
O=C(Nc1nnc(SCC(=O)N2CCOCC2)s1)c1ccccc1	32µM*
Clc1ccc(-n2ncc3c(NCc4ccc5c(c4)OCO5)ncnc32)cc1	?

Looked up by structure from above:
SMILES	HPGD block
O=C(O)CSCC(=O)Nc1cccc(C(F)(F)F)c1	-9%
O=C1CC(SCc2nc3ccccc3[nH]2)C(=O)N1c1ccc(F)c(Cl)c1 (stereo unspecified)	22µM*
O=C(Nc1nnc(SCC(=O)N2CCOCC2)s1)c1ccccc1	32µM*
Cc1ccc(-n2c(SCC3CNC(=O)O3)nnc2-c2ccccc2)cc1C (stereo unspecified)	-1%
NC(=O)c1ccsc1NC(=O)c1ccc2c(c1)CCCC2	-22%

3 compounds out of the list, ordered by number of heavy atoms, smallest number first.
SMILES	HPGD block
O=C(CSc1ncccn1)Nn1cnnc1	-15%
O=C1C2C3C=CC(C4CC34)C2C(=O)N1/N=C/c1ccc([N+](=O)[O-])s1 (stereo unspecified)	?
Cn1c(=O)c2c(nc(-n3ccnc3)n2Cc2ccc([N+](=O)[O-])cc2)n(C)c1=O	-1%

More results:
SMILES	HPGD block
COc1ccc(N2CCN(C(=O)CN(c3ccccc3)S(=O)(=O)c3ccc(OC)cc3)CC2)cc1	-17%
CCOC(=O)c1c(C)n(C)c2ccc(OC)c(NC(=O)CN3CCN(C(=O)c4ccco4)CC3)c12	-10%
CCOC(=O)CN1Cc2cccc(C(=O)O)c2C1=O	-8%
Cc1ccc(OCCCC(=O)Nc2nccs2)cc1	-8%
O=c1c2c(nc3cc(-c4ccccc4)[nH]n13)CCC2	?
CC1CCC(C(=O)c2c(O)c3ccccc3oc2=O)CC1 (stereo unspecified)	-12%
COC(=O)c1ccccc1NC(=O)CSc1nnc(-c2cccnc2)n1C	-12%
CCOc1ccc(N(Cc2cc3cc(OC)ccc3[nH]c2=O)S(C)(=O)=O)cc1	-25%
COc1c(C)c2c(c(O)c1C/C=C(\C)CCC(=O)O)C(=O)OC2	-25%
N#C/C(=C\c1cn(Cc2ccccc2C#N)c2ccccc12)C(=O)NCc1cccs1	?
Cc1cccc(NC(=O)CCC(=O)OCc2ccc(Br)cc2)c1	-11%
CCN(CC(=O)NC)S(=O)(=O)c1ccc(C)cc1	-9%
COc1cccc([C@@H]2Oc3ccc(Br)cc3C(=O)[C@H]2OC(=O)N[C@H](C)C2CCCCC2)c1	-8%
Cc1cc(C)cc(NC(=O)c2snc3c(=O)[nH]cnc23)c1	-15%
CS(=O)(=O)N(CC(=O)NC1CCCC1)c1cccc(F)c1	2%
N#Cc1cc(-c2ccc(Cl)cc2)cnc1Sc1ccc(F)cc1	?
Cc1cc(S(=O)(=O)Nc2ccc(N(C)C)cc2)c(C)s1	-24%
Cn1cnnc1SCc1ccc(C(=O)O)cc1	-7%
c1nc(NCCc2cnc[nH]2)c2[nH]cnc2n1	-14%
O=C(COc1ccc(-c2ccccc2)cc1)N/N=C/c1ccccc1Br	-3%
Cc1ccc(C)c(S(=O)(=O)NCc2ccc(C(=O)N3CCC(Cc4ccccc4)CC3)cc2)c1	?
COc1cc2c(cc1NC(=S)NC(=O)/C=C/c1ccco1)oc1ccccc12	-12%
O=c1[nH]c(CSc2nnc3ccccn23)nc2ccccc12	-4%
Cc1cc(NS(=O)(=O)c2ccc(NC(=O)c3ccco3)cc2)no1	-20%
O=C1CCC([N+](=O)[O-])C(c2cccc(Cl)c2Cl)N1 (stereo unspecified)	-6%
O=C(CSc1nnc(-c2ccc(S(=O)(=O)N3CCCC3)cc2)o1)NCc1ccco1	-21%
N#Cc1nc(Cc2ccccc2)oc1NCCCn1ccnc1	-16%
CC1Cc2ccccc2N1C(=O)CSc1nnnn1-c1ccc2c(c1)OCCO2 (stereo unspecified)	-12%
CCCCN(C(=O)CSc1nncn1-c1ccccc1)c1c(N)n(Cc2ccccc2)c(=O)[nH]c1=O	-4%
O=C(NCC1CCCO1)c1sc2cc(Cl)ccc2c1Cl (stereo unspecified)	14µM*
